From PubChem BioAssay
ClpP mod: qHTS Assay for Activators of ClpP. ATP-dependent Clp protease proteolytic subunit (Bacillus subtilis (strain 168)), P80244. purified B. subtilis ClpP, FRET peptide cleavage, 20 min. Potency, µM (series often up to 57.5 µM), for the others: at the top dose activity change, negative = active. hit rate 1.9% among 340,000. AID 651965, 2013; active = well fitted falling curve with a large enough effect; inconclusive = small, poorly fitted or top-dose-only effect; inactive = no such curve, though single readings can be large or run the other way; also: potency is read from the fitted curve at half-maximal effect; the source files actives as falling curves though it sought activators and does not explain the sign; nearly all actives have a fitted effect of over 65% in size; many hits overshoot -100%
Target sequence (P80244 whole entry, looked up): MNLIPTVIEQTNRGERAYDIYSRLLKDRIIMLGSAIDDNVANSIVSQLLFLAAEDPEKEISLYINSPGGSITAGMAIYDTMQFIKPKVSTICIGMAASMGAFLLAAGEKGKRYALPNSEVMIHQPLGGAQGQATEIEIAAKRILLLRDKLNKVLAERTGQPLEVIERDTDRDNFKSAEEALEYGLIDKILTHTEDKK
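FRET quenching reversal measured ClpP activation: 10 microg/mL B. subtilis ClpP at pH 8 with the FRET-FV decapeptide, read at 430 nm after 320 nm excitation. The 20-min minus 0-min signal was scaled between DMSO/no-enzyme wells and ADEP (5.8 microM final).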
gsp antag: qHTS for Antagonists of gsp, the Etiologic Mutation Responsible for Fibrous Dysplasia/McCune-Albright Syndrome: qHTS | gsp-mutant cells, cAMP HTRF, 30 min; control for the full effect not named in the record | Potency, µM (series often up to 76.9 µM), for the others: top-dose activity change, negative = inhibition, actives largely listed as inhibitors | hit rate 0.4% among 340,000; active = falling curve of any shape with a large fitted effect; inconclusive = falling curve, mostly with a smaller effect; inactive = flat or rising curve; cell line not stated here;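 also: intracellular cAMP measured with PDE inhibitor Ro 20-1724 present during compound exposure; potency is read from the fitted curve at half-maximal effect; % is scaled to controls: 0 for no effect and ±100 for the full control effect; nearly all actives have a fitted effect of over 65% in size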
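HTRF cAMP read-out (cAMP-d2 plus anti-cAMP antibody-K in lysis buffer, 30 min RT). Before lysis, cells are exposed to compounds with […] for 30 min at 37C in DPBS containing Ca/Mg, BSA and Tween 20.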
Menin MLL FP FL: qHTS Assay for Inhibitors Targeting the Menin-MLL Interaction in MLL Related Leukemias: Competition With Fluorescein Labeled MLL-derived Peptide; AID 1766, 2009; Fluorescence polarization, fluorescein-MLL peptide displacement from menin; 290,000 tested, under 10 active; FP activity change, % at 61.4 µM; inconclusive = falling polarisation curve, or a change in total fluorescence; inactive = total fluorescence flat and polarisation flat or rising; no compound was filed as active; the % refers to the polarisation; negative = inhibition;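 also: % of control where 0% means no effect; inhibitors lower the polarisation; unlabelled MLL peptide was the positive control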
TRPV1 potentiator: HTS Assay for Compounds that Act as Potentiators of the Vanilloid Receptor 1 | Transient receptor potential cation channel subfamily V member 1 (Homo sapiens), Q8NER1 | TRPV1-expressing cells, Fluo-8 calcium influx, capsaicin EC20 potentiation; host cell line not named in the record; control for the full effect not named in the record | potentiation, % at 8.33 µM | hit rate 0.02% among 320,000 | AID 540277, 2011; active means potentiation above 80%; inconclusive means 30% to 80%; inactive means below 30%; also: 0% is about no effect
Target sequence (Q8NER1 whole entry, looked up): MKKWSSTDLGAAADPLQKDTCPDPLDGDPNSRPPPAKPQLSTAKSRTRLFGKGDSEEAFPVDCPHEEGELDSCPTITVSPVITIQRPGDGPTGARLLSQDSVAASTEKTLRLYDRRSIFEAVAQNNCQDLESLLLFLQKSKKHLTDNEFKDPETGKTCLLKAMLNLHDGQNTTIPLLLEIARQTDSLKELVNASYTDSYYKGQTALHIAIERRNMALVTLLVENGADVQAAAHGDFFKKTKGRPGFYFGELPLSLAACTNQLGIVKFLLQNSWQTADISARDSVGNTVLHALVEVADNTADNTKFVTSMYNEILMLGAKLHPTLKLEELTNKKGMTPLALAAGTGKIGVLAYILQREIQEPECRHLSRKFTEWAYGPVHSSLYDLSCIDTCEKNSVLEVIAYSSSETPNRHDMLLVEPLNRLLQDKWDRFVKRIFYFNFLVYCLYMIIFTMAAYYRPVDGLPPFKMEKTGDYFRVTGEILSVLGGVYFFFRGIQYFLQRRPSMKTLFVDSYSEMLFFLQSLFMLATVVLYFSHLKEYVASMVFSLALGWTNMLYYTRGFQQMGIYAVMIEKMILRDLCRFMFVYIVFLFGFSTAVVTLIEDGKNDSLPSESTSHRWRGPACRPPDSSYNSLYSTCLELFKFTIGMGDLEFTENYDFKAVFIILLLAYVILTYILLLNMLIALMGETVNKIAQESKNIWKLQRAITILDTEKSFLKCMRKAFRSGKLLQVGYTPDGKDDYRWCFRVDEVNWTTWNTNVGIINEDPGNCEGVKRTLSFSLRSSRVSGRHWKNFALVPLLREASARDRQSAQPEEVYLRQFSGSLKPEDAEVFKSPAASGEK
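Cells expressing TRPV1 were dye-loaded with Fluo-8 and read kinetically: 10 s baseline, 3 min after compound (agonist portion), then 2 min after EC20 capsaicin (allosteric enhancer portion). Calcium-bound dye fluorescence at 480/520 nm.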
gsp agonist: qHTS for Agonist of gsp, the Etiologic Mutation Responsible for Fibrous Dysplasia/McCune-Albright Syndrome: qHTS. hit rate 0.13% among 340,000. gsp mutant cells, cAMP HTRF, 30 min; control for the full effect not named in the record. Potency, µM (titrated, usually from 76.9 µM), for inactives: top-dose activation (cAMP increase), usual class: activators; active = well fitted activation curve with a large enough effect; inconclusive = small, poorly fitted or top-dose-only effect, or another doubt; inactive = no such curve, though single readings can be large or run the other way; cell line not stated here;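 also: phosphodiesterase inhibitor Ro 20-1724 added with compounds to block cAMP breakdown; potency is read from the fitted curve at half-maximal effect; nearly all actives have a fitted effect of over 60% in size; about a fifth of the inactives were tested at one dose only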
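Cells in DMEM/10% FBS with G418 were pretreated with compounds in DMSO plus […] (300 uM stock) for 30 min at 37C. cAMP was measured by HTRF (cAMP-d2 plus anti-cAMP antibody-K) after 30 min at room temperature.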
TRPML1 blocker: qHTS for Inhibitors of the Human Mucolipin Transient Receptor Potential 1 (TRPML1); Mucolipin-1 (Homo sapiens), Q9GZU1; TRPML1-inducible cells, Ca2+ dye fluorescence, FDSS; stronger effect = lower value; inhibition of EC80 agonist-evoked calcium signal; activity change, negative = inhibition, % (concentration not given with the values); hit rate 0.02% among 390,000; in the data active means activity change below about -50%; inconclusive means about -30% to -50%; inactive means above about -30%;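 also: stimulus is agonist 54-4 at its EC80 concentration; % is scaled to controls: 0 for no effect and ±100 for the full control effect; compound concentration not given in the record; the text of the record puts the active cut at -80%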
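TRPML1-DL cells, Tet-induced overnight (~16 h, 37 °C) at 1,500 cells/well, were loaded with Ca8 no-wash dye plus quencher for 45-90 min at room temperature. Compounds were pinned during FDSS kinetic reading; agonist 54-4 at EC80 (4 uM final) then added.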
Sfp inh: qHTS Assay for Inhibitors of Bacillus subtilis Sfp phosphopantetheinyl transferase (PPTase); 4'-phosphopantetheinyl transferase ffp (Bacillus subtilis), Q9F4F7; Biochemical Sfp PPTase activity, qHTS; Potency, µM, for the others: max response, negative = inhibition, most hits filed as inhibitors; hit rate 3.5% among 310,000; AID 1490, 2009; active = well fitted inhibition curve with a large enough effect; inconclusive = small, poorly fitted or top-dose-only effect, or another doubt; inactive = no such curve, though single readings can be large or run the other way;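 also: the enzyme is Sfp with the accession as filed and its product quenches rhodamine fluorescence; potency is read from the fitted curve at half-maximal effect; 0% = enzyme reaction without inhibitor and -100% = no enzyme wells; top concentration of the series not given in the record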
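Step 1, compound plus 15 nM Sfp-PPTase, 15 min, room temperature. Step 2, add rhodamine-CoA (5 uM) and BHQ-2-YbbR (12.5 uM). Step 3, read 525/598 nm fluorescence at 0 and 30 min.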
The depositor's hits bear a star; u = inconclusive; x = not tested or not shown; & = joins results of further samples; [ ] = remark or other dose.

Sample of the layout, two compounds:
SMILES	ClpP mod	gsp antag	Menin MLL FP FL	TRPV1 potentiator	gsp agonist	TRPML1 blocker	Sfp inh
NC(=O)c1ccsc1NC(=O)CCS(=O)(=O)c1ccc(F)cc1	-24%	15%	x	19	u	6	x
O=C(NCC1CCCO1)C(c1cccs1)N(Cc1ccccc1)C(=O)c1ccc(-c2ccccc2)[nH]1 (stereo not given)	-13%	-14%	9.1	-8	19%	-14	u

This part in full, from the start:
SMILES	ClpP mod	gsp antag	Menin MLL FP FL	TRPV1 potentiator	gsp agonist	TRPML1 blocker	Sfp inh
NC(=O)c1ccsc1NC(=O)CCS(=O)(=O)c1ccc(F)cc1	-24%	15%	x	19	u	6	x
O=C(NCC1CCCO1)C(c1cccs1)N(Cc1ccccc1)C(=O)c1ccc(-c2ccccc2)[nH]1 (stereo not given)	-13%	-14%	9.1	-8	19%	-14	u
CC(C)(C)NC(=O)CSCc1c(Cl)cccc1Cl	-0.9%	-2%	1.7	3	9%[15.4 µM]	-26	8%
Cn1c(=O)[nH]c(=O)c2c1nc(NC1CCCCC1)n2CC(=O)NC1CCCCC1	x	x	1.4	u	x	x	12%
COc1ccc2nc(NC(=O)CN(c3ccc(C)cc3)S(=O)(=O)c3c(C)nn(C)c3C)sc2c1	-2.6%	-21%	5.8	-26	1%	-12	-9%
O=C(NCCN1CCN(c2ccccc2F)CC1)c1ccc2nc3ccccc3c(=O)n2c1	-14%	-16%	6.7	14	u	4	8%
CCn1c(O)c(/C=N/N=C/c2ccccc2)c2ccc(C3=NNC(=O)CC3)cc21	1.1%	-23%	u	-10	-3%	-6	u
CC1CCCN(S(=O)(=O)c2ccc(C(=O)NC(C)c3ccccc3)cc2)C1 (stereo not given)	-4.4%	1%	x	-12	-38%	3	x
COc1ccc2nc(NNC(=O)C3COc4ccccc4O3)sc2c1 (stereo not given)	-0.5%	-6%	-0.6	5	25%	30	79µM*
COc1cccc(-n2nc(C(=O)N3CC(C)CC(C)C3)c3ccccc3c2=O)c1 (stereo not given)	-1.2%	-10%	0.3	-3	4%	-6	0%
CCNc1nc(Oc2ccc(=O)n(-c3ccccc3)n2)nc(N(C)C)n1	3.5%&0.5%	5%	6.8	-13	12%	-2&0	1%
Cc1csc(=O)n1CCC(=O)OCC(=O)NCc1ccc(Cl)cc1Cl	-1.0%	-1%	x	11	-8%	-5	x
Cc1cc(CNC(=O)COc2ccccc2)c2ccccc2n1	x	2%	-0.8	5	4%[15.4 µM]	0	11%
Cn1c(Oc2ccc(Cl)c3cccnc23)nc2c1c(=O)n(Cc1ccccc1Cl)c(=O)n2C	x	x	-0.2	0	x	x	7%
Cc1occc(=O)c1O	-1.6%	-7%	-6.1&1.8	1	x	-5	u
Cc1ccc(C)c2[nH]c(=O)c(CCNC(=O)CCc3ccccc3)cc12	-11%	1%	1.3	3	-30%	-5	21%
O=C(Nn1cnnc1)c1ccccc1Cl	-1.2%	18%	u	-13	8%	25	2%
O=C(O)c1ccc(CSc2nc3ccc(NC(=O)c4ccccc4C(=O)O)cc3s2)cc1	x	-30%	-1.2	4	-25%[15.4 µM]	6	-9%
Cn1cc(/C=C(\C#N)C(=O)Nc2ncc(Cc3ccc(Cl)cc3)s2)c2ccccc21	0.8%	8%	x	0	-34%[inhibitor]	3	13%
c1ccc(Cc2nnc(N3CCCCC3)c3ccccc23)cc1	x	-4%	-3.8	13	-2%[15.4 µM]	21	-12%
COc1cccc(NC(=O)N(C)C[C@@H]2Oc3cc(Br)ccc3S(=O)(=O)N([C@@H](C)CO)C[C@H]2C)c1	-2.7%	x	x	x	-30%	16	x
COc1cccc(CN2CCN(Cc3nc(-c4cccc(F)c4F)oc3C)CC2=O)c1	x	-12%	-0.3	-1	11%[15.4 µM]	u	3%
Fc1ccccc1CNc1nc(-c2cccnc2)nc2ccccc12	x	-10%	14	20	26%	-4	-22%
CCCCc1cc(C)c(S(=O)(=O)c2ccccc2C)c(=O)[nH]1	-14%	1%	-7.3	19	u	13	12%
Cc1ccc(Cc2cnc(N)s2)o1	0.4%	-7%	14	9	5%	-12	-28%
CCN(CC)S(=O)(=O)c1ccc(C(=O)N(c2ccccc2)C2C=CS(=O)(=O)C2)cc1 (stereo not given)	x	4%	0.6	3	-4%	-1	25%
COc1ccc2c(c1)C(C)=CC(C)(C)N2S(=O)(=O)c1ccc(NC(C)=O)cc1	x	16%	0.0	-11	-7%	58	6%
CN(CCc1ccccc1)C(=O)c1cccc(NC(=O)Cc2cccc(NC(=O)C3CCCN(C(=O)C4CCCC4)C3)c2)c1 (stereo not given)	-1.0%	-19%	x	x	x	-9	x
Cc1ccnc(NC(=O)c2cccc(NC(=O)COc3ccccc3)c2)c1	0.5%	-15%	0.3	7	-53%[inhibitor]	-3	25%
CCOC(=O)Cc1csc(NC(=O)CSc2nnc(C3CC3)n2C)n1	-1.3%	12%	0.9	-8	15%	-29	12%
C/C(Cl)=C\CSc1nnc2n(N)c(=O)c3ccccc3n12	1.6%	1%	1.7	x	12%	-7	-5%
COCCCn1c(SCc2ccc(OC)cc2)nc2cc(OC)c(OC)cc2c1=N	-26%	8%	3.2	9	u	0	1%
COc1ccc2c(c1)O/C(=C\c1sccc1C)C2=O	-0.1%	-9%	2.8	-2	u	-11	45µM*
CCOC(=O)c1c(NC(=S)Nc2ccc(Cl)cc2)sc2c1CCN(C)C2	8.4%	-2%	u	-5	29%	34	u
CCCCNC1C(CC)C(CCC)C(C#N)(C#N)C1(C#N)C#N (stereo not given)	-2.2%	10%	3.3	-4	5%	6	-5%
CC(OC(=O)Cn1c(C(F)(F)F)nc2ccccc21)C(=O)N1CCCc2ccccc21 (stereo not given)	1.2%	4%	4.5	6	-26%	-13	13%
COCCCNCCCCOc1ccc(Br)cc1C	-1.7%	14%	0.2	0	-2%[15.4 µM]	19	-2%
O=C(CSc1nnc(NC(=O)c2c(F)cccc2Cl)s1)Nc1ccccc1F	0.8%	-8%	x	-7	-3%[15.4 µM]	12	13%
O=C(CCOc1ccccc1)OCC(=O)c1cc2ccccc2o1	1.1%	3%	2.7	0	-39%[inhibitor]	u	-5%
Cc1nc2ccccn2c1C(=O)NN=C1CCN(C)CC1	-1.1%	10%	-6.9	-6	29%	-12	-4%
CCOC(=O)C1=C(CSCC(=O)OC)NC(=O)NC1c1cc(C)ccc1C (stereo not given)	-1.5%	1%	7.3	-4	8%	-24	9%
COCCCN1C(=O)C2C(C(=O)Nc3cccc(Cl)c3)C3C=CC2(O3)C1C(=O)NC1CCCCC1 (stereo not given)	0.3%	-15%	4.6	-1	22%[15.4 µM]	-16	4%
Cn1c(=O)c(=O)n(C)c2cc(S(=O)(=O)CCC(=O)Nc3ccccc3C(F)(F)F)ccc21	4.1%	x	x	x	u	-16	x
COc1ccc(C(C)=O)cc1CSCCC(=O)O	1.4%	-3%	4.8	19	-15%	2	1%
O=C(CCCN1C(=O)c2ccccc2C1=O)NCCCN1CCOCC1	-2.4%	15%	0.3	9	11%	-19	10%
Cn1cc([N+](=O)[O-])cc1-c1nc2ccccc2n1C	-2.1%	-4%	u	18	2%	2	28%
CCOc1ccc(CCNC(=O)C2CCN(S(=O)(=O)c3ccc(C)cc3)CC2)cc1OCC	-6.3%	-17%	x	-2	u	3	1%
CCOC(=O)C1CCN(S(=O)(=O)c2cccc3nonc23)CC1	-1.1%	-8%	-2.3	7	-27%	-10	15%
C=CCN(CC=C)S(=O)(=O)c1ccc2nc(NC(=O)C(C)C)sc2c1	101%	18%	3.7	-14	1%	5	0%
COc1cccc(C2/C(=C(\O)c3ccc4c(c3)OCCO4)C(=O)C(=O)N2c2nnc(C)s2)c1 (stereo not given)	-0.8%	-10%	x	15	8.9µM*	-5	-2%
Other compounds
SMILES	ClpP mod	gsp antag	Menin MLL FP FL	TRPV1 potentiator	gsp agonist	TRPML1 blocker	Sfp inh
O=C(NCc1ccco1)c1cccc(F)c1	-1.7%	8%	3.7	-4	2%	-12	2%
Cc1c(Cl)cccc1NC(=O)Nc1cnccn1	-6.0%	9%	x	-4	12%	5	-10%
CCC1CN(C(=O)NCc2ccc(F)cc2)c2cc(C)ccc2O1 (stereo not given)	0.8%&0.3%	-1%	5.3	-11	25%	-15&18	8%
CCC(C)C(=O)Nc1ccccc1N1CCN(c2ccc(F)cc2)CC1 (stereo not given)	1.0%	-8%	0.0	-2	10%[15.4 µM]	11	-3%
CC(=O)Nc1ccc(/C=C(\C#N)C(=O)NC2CCCCC2C)cc1 (stereo not given)	x	2%	-3.8	-14	-11%	-8	-2%
Cc1ccc(-c2nc(N3CCOCC3)sc2C(=O)N2CCCCC2)cc1	0.7%	-6%	1.3	-5	-3%	14	18%
Cc1ccc(S(=O)(=O)N2CCN(C(=O)COc3ccc(Br)cc3)CC2)cc1	1.0%	-24%	x	-2	u	4	x
O=C(OCC(=O)N1CCCc2ccccc21)c1cc(Cl)ccc1O	27%	14%	x	-4	u	20	8%
CC1Cc2ccccc2N1S(=O)(=O)c1cccc(C(=O)NCCCO)c1 (stereo not given)	-2.1%	-8%	3.2	-10	-22%	-4	11%
Nc1cc(N2CCCCC2)c([N+](=O)[O-])cc1Cl	-2.6%	-2%	-5.3	-2	-36%[inhibitor]	-4	1%
COc1ccccc1-n1c(-c2ccc(NS(C)(=O)=O)cc2)n[nH]c1=S	28µM*	-11%	-4.1	-11	u	-14	-12%
O=C1CC(N2CCN(Cc3ccccc3)CC2)C(=O)N1c1ccc2c(c1)OCCO2 (stereo not given)	0.9%	3%	-3.0	-4	7%	44	-1%
